# Bfl-1 A1 inh – inhibitors of the anti-apoptotic protein A1, read as caspase activation; MEF A1-2A-BIM cells, Caspase-Glo 3/7 luminescence, 3 h; percent of clofoctol response, vehicle zero; caspase activation, % (no concentration beside the values); 330,000 tested, 0.066% active; AID 2462;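 active = over half of replicate activation scores above 10%, or exactly half above 10 with the replicate mean above 10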;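 note: wells of about 30 µL received 50 nL stock; many hits fall short of the cut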
# rRNA inh HTS – inhibitors of bacterial rRNA selective over humanized ribosomes. E. coli WT GFP vs humanized-ribosome RFP mutants, fluorescence, 24 h; active compounds read low; DMSO median 0, no signal -100. GFP signal change (wild-type ribosome), % (concentration not given with the values). 350,000 tested, 1.6% active. AID 720706;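 active = significant combined selectivity score with lowered wild-type GFP, culture density cut under 30%, mutant RFP and density less affected; inactive = any of these conditions unmet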; note: one replicate is shown; some compounds called inactive have numbers as strong as hits
# FGF22 binding – binders of recombinant human FGF22 by thermal shift; calls only at 9.99 µM; SYPRO orange fluorescence; percent of sucrose octasulfate shift, DMSO zero; 340,000 tested, 1.5% active;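 active = melting point raised past a set limit in the mean and every replicate; three in four hits are not shown here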
# Target sequence (Q9HCT0 whole entry, looked up): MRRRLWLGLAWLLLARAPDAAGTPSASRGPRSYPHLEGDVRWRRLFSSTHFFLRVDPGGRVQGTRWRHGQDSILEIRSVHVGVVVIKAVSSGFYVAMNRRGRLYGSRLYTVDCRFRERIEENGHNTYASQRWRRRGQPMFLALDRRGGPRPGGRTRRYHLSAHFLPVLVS
# MLL AF4-AF9 inh – MLL-AF4/AF9 protein interaction inhibition | inhibition, % at 10 µM | 350,000 tested, 0.47% active | AlphaScreen, biotin-AF4 peptide binding to FLAG-AF9 | P42568;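 active = every replicate reaching a set inhibition limit, whatever the replicate mean, cut at about 25% in these data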;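 note: 0% = plate neutral control median and 100% = total signal loss; the record names both 10 and 1 µM as test concentration; the first replicate is given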
# Target sequence (P42568 whole entry, looked up): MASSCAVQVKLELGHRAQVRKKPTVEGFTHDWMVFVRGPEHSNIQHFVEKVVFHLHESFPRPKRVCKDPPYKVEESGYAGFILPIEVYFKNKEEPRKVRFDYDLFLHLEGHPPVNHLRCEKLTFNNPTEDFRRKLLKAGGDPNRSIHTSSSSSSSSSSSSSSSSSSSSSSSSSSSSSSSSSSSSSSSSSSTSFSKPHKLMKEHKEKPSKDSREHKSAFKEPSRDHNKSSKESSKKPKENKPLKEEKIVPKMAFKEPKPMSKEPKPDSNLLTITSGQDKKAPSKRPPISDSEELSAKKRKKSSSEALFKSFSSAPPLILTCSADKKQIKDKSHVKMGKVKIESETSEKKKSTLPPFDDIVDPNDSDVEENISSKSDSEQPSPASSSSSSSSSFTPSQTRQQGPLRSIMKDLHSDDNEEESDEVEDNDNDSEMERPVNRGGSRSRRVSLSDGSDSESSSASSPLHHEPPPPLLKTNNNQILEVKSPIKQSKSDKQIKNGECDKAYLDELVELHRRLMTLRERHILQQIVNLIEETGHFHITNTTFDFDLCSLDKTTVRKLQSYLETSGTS
# Ecoli growth – E. coli growth inhibition. 330,000 tested, 0.21% active. Escherichia coli growth, OD600, 23 h; active compounds read low. OD600 absorbance (test concentration not listed). AID 1053175;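 active = OD600 absorbance below the run mean of sample wells minus 3.6 SD, in any replicate, cut at about 0.56 in these data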;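 note: stock transfer was 300 nL into about 60 µL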
# Beta apoptosis – blocks beta cell apoptosis; INS-1E cytokine-induced death, ATP luminescence, 48 h; percent of positive-control rescue, neutral wells zero; AID 435005; protection from apoptosis, % (no concentration beside the values); 300,000 tested, 0.8% active;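 active = all replicates at 75% or more, or half of them and the mean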;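 note: 0% = cytokine-treated negative control wells and 100% = positive control rescue; higher means more ATP so stronger rescue from cytokine killing; wells of about 40 µL received 100 nL stock; the first replicate is given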
# UCH37 DUB inh – inhibitors of human deubiquitinating enzyme UCH37. Q9Y5K5. purified proteasome/UCH37, Ub-AMC cleavage fluorescence. inhibition, % (concentration not given with the values). 330,000 tested, 0.33% active;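 active = mean of two replicates above 20%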;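 note: 0% = compound-free wells with enzyme and 100% = wells lacking proteasome; stock transfer was 100 nL into about 20 µL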
# Target sequence (Q9Y5K5 whole entry, looked up): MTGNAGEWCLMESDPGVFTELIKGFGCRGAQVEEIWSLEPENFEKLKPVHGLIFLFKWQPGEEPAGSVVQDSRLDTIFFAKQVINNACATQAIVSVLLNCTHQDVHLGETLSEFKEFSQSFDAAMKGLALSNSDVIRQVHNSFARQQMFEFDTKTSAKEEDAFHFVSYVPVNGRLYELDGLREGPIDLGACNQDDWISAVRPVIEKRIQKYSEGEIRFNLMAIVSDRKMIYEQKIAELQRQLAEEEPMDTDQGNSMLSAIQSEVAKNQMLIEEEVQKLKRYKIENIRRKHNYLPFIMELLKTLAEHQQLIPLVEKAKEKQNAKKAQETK
#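 Material: Human UCH37 enzyme supplied as purified proteasome complex | Schedule: 30 min preincubation with enzyme, 25 min cleavage at room temperature | Detection: AMC fluorescence 355/460 nm | Measure: % inhibition of Ub-AMC cleavage fluorescence | Controls: Wells without proteasome as full block, compound-free enzyme plus substrate as uninhibited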
# T cruzi repl – T. cruzi replication inhibition; 300,000 tested, 1.4% active; inhibition, % (test concentration not listed); AID 1885; T. cruzi beta-gal in NIH3T3, luminescence, 90 h;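 active = mean inhibition across valid replicates above about 55%, limit read from the data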;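 note: signal also drops with host cell toxicity which is not excluded here; 0% = plate median of DMSO wells and 100% = zero luminescence signal; higher percent means less beta-gal luminescence so fewer parasites; stock transfer was 50 nL into about 50 µL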
# rRNA inh HTS OD600 – further read-out of rRNA inh HTS, marked with its call; OD600 change, %; measured here: OD600 growth;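 optical density of the mix in the first replicate; 0 = DMSO median and -100 = no signal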
# rRNA inh HTS RFP – further read-out of rRNA inh HTS, marked with its call; RFP signal change, %; measured here: RFP humanized mutant strains;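 first replicate; 0 = DMSO median and -100 = no signal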
# * = called active by the depositor; i = inactive; nt = not tested or not shown. The list is partial (hit frequency here may not be typical).
SMILES,Bfl-1 A1 inh,rRNA inh HTS,rRNA inh HTS OD600,rRNA inh HTS RFP,FGF22 binding,MLL AF4-AF9 inh,Ecoli growth,Beta apoptosis,UCH37 DUB inh,T cruzi repl
COc1cc(C2C(C(C)=O)=C(O)C(=O)N2c2ccc(Br)cn2)ccc1O (centres undefined),0.0,nt,nt,nt,nt,nt,0.67,-4,10,-4
CC(=O)Nc1ccc(CCCCc2ccccc2)cc1,nt,-7,-14,-1.4,i,-0.7,0.67,nt,1.5,nt
COc1ccc2[nH]c3c(=O)n4c(nc3c2c1)SCCC4,-0.2,-28*,-16*,-4.8*,i,-1.6,0.71,-6,-85,-18
COc1ccc(C(=O)NC(=S)NNC(=O)c2ccccc2O)cc1,-0.4,8,-1,-4.3,i,0.9,0.7,27,1.6,5
CCCCCCCCCCCC(=O)NC(Cc1ccc(OC)c([N+](=O)[O-])c1)C(=O)O (centres undefined),-0.1,nt,nt,nt,i,1.0,0.69,-2,8.3,-3
COc1ccc(C(CCc2cc(OC)c(OC)c(OC)c2)NC(C)=O)cc1 (centres undefined),nt,3,3,0.8,nt,-2.5,0.72,nt,-2.4,nt
CCOC(=O)CSC1=C(C#N)C(c2ccccc2Cl)C(C(=O)OC)C(=O)N1 (centres undefined),-0.4,nt,nt,nt,nt,nt,0.66,5,3.0,1
O=C(O)CCCC(=O)NS(=O)(=O)c1ccc(Cl)cc1,-0.8,nt,nt,nt,nt,nt,0.75,-10,0.4,-13
O=C(CSc1nnc(-c2ccco2)n1Cc1ccco1)NCc1cccs1,0.3,nt,nt,nt,nt,nt,0.73,0,1.6,-1
Cc1nn(CCC#N)c2[nH]c(=O)cc(C(F)(F)F)c12,-0.9,11,16,-0.7,i,-4.1,0.69,-2,-8.5,-16
CCSCc1nnc(SCC(=O)Nc2ccc(F)cc2)n1CC,-0.4,-6,-3,-9.4,i,-1.4,0.67,-8,-0.8,-1
CSc1nc2ccc(NS(=O)(=O)c3ccccc3F)cc2s1,-0.2,-23,-41,-0.4,i,0.9,0.65,-2,3.9,7
Cc1ccc(N(CN2CCCC2=O)C(=O)c2ccc(C)c(C)c2)cc1,0.8,-3,-13,2.3,nt,nt,0.69,-6,3.3,11
CN(C1=C(NC(=O)c2ccccc2)C(=O)c2ccccc2C1=O)C1CCS(=O)(=O)C1 (centres undefined),-0.8,-18,14,12,i,9.3,0.69,97*,49*,37
COc1ccc([C@H]2CC(=O)C=C(c3cccc(OCc4ccccc4)c3)C2)cc1,-0.4,9,1,2.7,i,-1.1,nt,-1,-0.2,nt
COc1ccccc1NC(=O)C/C(N)=N/OCC(=O)Nc1cccc(Cl)c1,0.0,nt,nt,nt,i,-0.4,0.68,0,6.1,nt
Cc1ccc(NC(=O)C(NC2CCCC2)c2ccccc2)cc1Cl (centres undefined),0.6,-57,-80,-17,nt,-2.2,0.61,4,4.4,8
CC(=O)Nc1ccc(NC(=O)c2cc(=O)c3cc(C)cc(C)c3o2)cc1,0.3,15,12,1.6,i,1.0,0.65,1,-0.9,-2
COc1cccc(NC(=O)CN(C)C(=O)C2CC(=O)N(CCc3ccc(OC)c(OC)c3)C2)c1 (centres undefined),nt,-8,1,-4.9,i,-0.7,0.69,nt,-1.2,nt
CCc1cccc(CC)c1NC(=S)Nc1cccc(Cl)c1Cl,-0.1,-3,7,3.5,i,0.5,0.72,-13,2.6,-22
COC(=O)c1ccc(NC(=O)c2ccco2)cc1,-0.1,1,12,-2.9,nt,nt,0.67,3,5.8,-3
C=C1c2ccc(C)cc2NC(=O)N1c1ccccc1,-1.0,nt,nt,nt,nt,nt,0.78,4,-20,-8
Fc1ccc(CSc2nnc3ccccn23)c(Cl)c1,0.2,1,-1,3.0,i,0.9,0.68,0,5.5,-10
COC(=O)c1ccccc1NC(=O)Nc1ccc(C)cn1,0.4,14,11,-0.1,nt,8.3,0.7,-5,1.3,-9
O=C(COC(=O)COc1ccc(Cl)cc1)Nc1ccc(N2CCOCC2)cc1,0.0,11,2,-5.4,i,-1.4,0.67,5,1.3,-7

# (next part)
SMILES,Bfl-1 A1 inh,rRNA inh HTS,rRNA inh HTS OD600,rRNA inh HTS RFP,FGF22 binding,MLL AF4-AF9 inh,Ecoli growth,Beta apoptosis,UCH37 DUB inh,T cruzi repl
COc1ccc(CN(C)C(=O)c2cc(S(=O)(=O)NCc3ccccc3)ccc2C)c(OC)c1,0.2,-13,-25,-2.8,i,8.6,0.64,2,3.6,nt
O=[N+]([O-])c1ccc(O)c(/C=N/Nc2ccccc2[N+](=O)[O-])c1,-5.5,7,7,3.0,i,0.9,nt,37,nt,-11
CCCCN1CC[C@H]2C=CC[C@@H](C(=O)Nc3ccc(Cl)cc3Cl)[C@H]2C1=O,-0.5,2,-3,-1.2,i,nt,nt,1,2.8,-11
COc1ccc(C/C(C)=N/NC(=S)Nc2ccccc2F)cc1,0.8,1,1,7.4,i,-1.9,nt,9,nt,-22
CN(Cc1ccccc1Br)C(=O)CN1C(=O)NC2(CCCCCC2)C1=O,0.7,-4,-13,0.1,i,1.6,0.7,-4,-2.3,nt
CCNC(=O)c1c(O)c2c([nH]c1=O)CCCC2,-0.6,3,2,-6.1,i,-0.9,0.72,-5,-0.1,-8
O=S(=O)(c1ccccc1)c1cnc(-c2cccnc2)nc1-c1ccc(Cl)c(Cl)c1,0.3,nt,nt,nt,nt,nt,0.69,-4,4.0,12
CC1CN(Cc2nc3c(c(=O)[nH]c(=O)n3C)n2CC(N)=O)CC(C)O1 (centres undefined),0.1,17,19,-2.7,i,-2.2,0.71,-4,6.4,-1
CN(C=[N+](C)C)c1cccc2c1C(=O)c1ccccc1C2=O,-1.7,nt,nt,nt,nt,nt,0.71,1,3.2,-5
CCC(C(=O)NC(C)(C)C)N(C(=O)Cn1nnc(-c2cccs2)n1)c1cnc2ccccc2c1 (centres undefined),0.8,nt,nt,nt,nt,nt,0.7,nt,0.5,5
O=C1c2ccccc2NC(c2ccccc2F)N1NS(=O)(=O)c1ccccc1 (centres undefined),0.4,2,5,-0.8,i,3.5,0.64,1,-163,-7
O=C(C(=O)N1CCCc2ccccc21)c1cn(CC(=O)N2CCOCC2)c2ccccc12,0.5,0,-12,0.2,i,0.7,0.71,-4,4.4,nt
CC(=O)Oc1ccc(/C=N/NS(=O)(=O)c2ccc(C)cc2)c(OC(C)=O)c1,-0.7,14,8,5.2,i,1.1,nt,-1,nt,-13
COc1cc(C(=O)OCC(=O)Nc2cccc(S(=O)(=O)N3CCCC3)c2)ccc1OCC(C)C,0.2,-8,-11,0.5,i,5.3,0.71,-5,0.8,2
O=C(NCc1ccccn1)c1ccc(NS(=O)(=O)c2cccc(Cl)c2)cc1,1.0,-9,-6,-2.1,i,0.8,0.68,0,3.6,-3
Cc1ccccc1NC(=O)COC(=O)c1ccccc1SCC(=O)N1CCCC1,0.2,2,-10,1.2,i,-5.5,0.7,-4,2.8,-17
Cc1nn(-c2ccccc2)c(Cl)c1C(=O)N1CCN(c2ncnc3c2cnn3-c2ccccc2)CC1,-0.6,nt,nt,nt,nt,nt,0.79,43,1.0,34
O=C(NCCN1CCOCC1)C(=O)NCC1OCCCN1S(=O)(=O)c1ccc(F)cc1 (centres undefined),0.6,4,7,-0.8,i,-2.6,0.71,-4,6.0,2
O=C(NC(=S)Nc1ccccc1Br)C1CCCCC1,0.4,-5,-3,4.6,i,2.1,nt,-4,nt,nt
COc1ccc(NC(=O)CC(=O)Nc2ccc(OC)cc2)cc1,1.5,-2,4,-3.3,i,nt,0.63,-11,3.0,-2
COc1ccc(CNn2c(-c3cccc(C)c3)nc3ccccc3c2=O)cc1OC,-0.8,4,2,-4.0,i,-5.1,0.63,-1,0.3,-4
CCC(=O)OCC(=O)Nc1ccc2c(c1)OCO2,-1.5,22,19,-0.3,i,-0.1,0.68,-5,2.5,-18
CC(C)(C)c1ccc(C(=O)N2CCCC2c2cccs2)cc1 (centres undefined),0.9,-54,-77,-12,i,0.1,0.67,-5,4.9,6
CCC(CC(C)(C)O)C(=O)NNC(=S)Nc1ccccc1 (centres undefined),0.4,15,15,1.0,nt,-1.7,0.72,-1,1.4,-11
CC1C(=O)N2CCCc3cc(NC(=O)c4ccccc4Br)cc1c32 (centres undefined),0.3,0,3,-3.6,i,-3.3,0.66,1,1.5,-2

# Next records.
SMILES,Bfl-1 A1 inh,rRNA inh HTS,rRNA inh HTS OD600,rRNA inh HTS RFP,FGF22 binding,MLL AF4-AF9 inh,Ecoli growth,Beta apoptosis,UCH37 DUB inh,T cruzi repl
O=C(c1cnn2cccnc12)N1CCN(c2ccccc2)CC1,0.0,nt,nt,nt,nt,nt,0.65,nt,2.0,-1
CCOC(=O)c1c(C)oc(NC(=O)CCl)c1C(=O)OCC,-0.3,0,0,0.0,i,-0.9,0.65,-4,0.8,-9
O=C(Cn1nc(Cl)nc1Cl)c1cc2ccccc2oc1=O,0.6,nt,nt,nt,nt,nt,0.66,-6,-38,-12
O=C(CCc1nnc2ccc(NCCCN3CCCC3=O)nn12)NCc1ccccc1Cl,0.4,5,8,1.0,i,0.1,0.68,3,-3.6,-14
COc1ccc(-c2cc(=O)[nH]c3ccccc23)cc1,-0.3,1,6,-2.0,i,2.5,0.68,-2,-16,nt
Cc1cccc(N2CCN(CC(O)COc3ccccc3Cl)CC2)c1 (centres undefined),0.6,-27,-44,32,i,2.4,nt,-2,nt,-6
COc1ccc2[nH]c(C(=O)O)c(NS(=O)(=O)c3ccc(C)c(C)c3)c2c1,-0.3,-1,-5,1.2,i,-1.6,0.68,-7,-12,-6
O=S(=O)(c1ccc(S(=O)(=O)N2CCCC3(CCCCC3)C2)cc1)N1CCCCC1,-0.1,4,9,0.2,i,4.6,0.65,4,1.1,-1
O=[N+]([O-])c1cccc(S(=O)(=O)NCCOc2cccc3cccnc23)c1,2.1,2,5,-1.5,i,1.7,0.71,-5,2.6,-2
C1=C(CCNC2=NCCCCC2)CCCC1,-0.5,nt,nt,nt,nt,nt,0.68,-2,2.2,11
CCN(CC)C(=O)c1cn(C)c2ccc(S(=O)(=O)N(CC)CC)cc2c1=O,0.1,nt,nt,nt,nt,nt,0.73,-4,7.8,-18
COc1ccc(CN2CCCC(C(=O)Nc3cccc(-n4cnnn4)c3)C2)c(C)c1C (centres undefined),0.5,-5,-3,6.9,i,6.0,0.69,-1,7.8,-21
O=S(=O)(Nc1nc(-c2ccccc2)cs1)c1cc(Cl)ccc1Cl,0.8,-57,-79,-22,i,-2.5,0.6,1,2.2,1
Cc1c(NC(=O)c2ccccc2F)c(=O)n(-c2ccccc2)n1C,2.0,10,5,-3.2,i,-0.5,0.68,-3,1.8,-3

# 3 of these compounds, set out differently.
# Values run as follows: Bfl-1 A1 inh, rRNA inh HTS, rRNA inh HTS OD600, rRNA inh HTS RFP, FGF22 binding, MLL AF4-AF9 inh, Ecoli growth, Beta apoptosis, UCH37 DUB inh, T cruzi repl
> COc1ccc2[nH]c(C(=O)O)c(NS(=O)(=O)c3ccc(C)c(C)c3)c2c1
→ -0.3, -1, -5, 1.2, i, -1.6, 0.68, -7, -12, -6
> O=S(=O)(c1ccc(S(=O)(=O)N2CCCC3(CCCCC3)C2)cc1)N1CCCCC1
→ -0.1, 4, 9, 0.2, i, 4.6, 0.65, 4, 1.1, -1
> O=[N+]([O-])c1cccc(S(=O)(=O)NCCOc2cccc3cccnc23)c1
→ 2.1, 2, 5, -1.5, i, 1.7, 0.71, -5, 2.6, -2

# Screening results deposited in PubChem by several laboratories.
